# High-throughput results: PubChem, several laboratories
# GALR2 agonist = GALR2 (human) receptor agonism. AID 803. GALR2-expressing cells, agonist activation read-out. O43603. activation, %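 (tested at 5 µM)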. hit rate 0.48% among 140,000;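 active = above mean plus 3 SD of all compounds, about 5% in these data, not always enough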;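 also: 0% = vehicle buffer wells and 100% = reference agonist at full effect; tested in CHO reporter cells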
# HSV replic up = HSV replication enhancement; HSV replication augmentation in cells, fold increase; maximum fold increase; hit rate 0.005% among 220,000; AID 1956;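 active = peak rise of 1.5-fold or more in the series; inconclusive = self-fluorescent or not available for retest; tested in PC3 cells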;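 also: first round at 10 µM; read as green reporter fluorescence; hits show the peak of a series up to 25 µM; 1 = signal of infected wells without compound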
# RGS16-Gao = RGS16-Galphao interaction regulator (human). O15492+P09471. bead-based flow cytometry RGS16-Galphao binding, fluorescence; actives lie on both sides. binding response (% of control), % at 10 µM. hit rate 0.38% among 220,000. AID 1441;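 active = below 25% or above 175%, edge rows of some plates excepted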;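 also: Galphao activated by GDP with aluminum fluoride before binding; 100% = wells without compound and 0% = beads without RGS; some results beyond the cut were filed as inactive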
# PKD1 inh = inhibitors of human PKD1 kinase; Q15139; PKD1 kinase fluorescence polarization assay; inhibition, %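 (about 10 µM by stock and volumes)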; hit rate 0.056% among 200,000;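 active = inhibition of 50% or more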;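 also: controls were vehicle for no effect and a reference inhibitor for full effect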
# Target sequence (Q15139 whole entry, looked up): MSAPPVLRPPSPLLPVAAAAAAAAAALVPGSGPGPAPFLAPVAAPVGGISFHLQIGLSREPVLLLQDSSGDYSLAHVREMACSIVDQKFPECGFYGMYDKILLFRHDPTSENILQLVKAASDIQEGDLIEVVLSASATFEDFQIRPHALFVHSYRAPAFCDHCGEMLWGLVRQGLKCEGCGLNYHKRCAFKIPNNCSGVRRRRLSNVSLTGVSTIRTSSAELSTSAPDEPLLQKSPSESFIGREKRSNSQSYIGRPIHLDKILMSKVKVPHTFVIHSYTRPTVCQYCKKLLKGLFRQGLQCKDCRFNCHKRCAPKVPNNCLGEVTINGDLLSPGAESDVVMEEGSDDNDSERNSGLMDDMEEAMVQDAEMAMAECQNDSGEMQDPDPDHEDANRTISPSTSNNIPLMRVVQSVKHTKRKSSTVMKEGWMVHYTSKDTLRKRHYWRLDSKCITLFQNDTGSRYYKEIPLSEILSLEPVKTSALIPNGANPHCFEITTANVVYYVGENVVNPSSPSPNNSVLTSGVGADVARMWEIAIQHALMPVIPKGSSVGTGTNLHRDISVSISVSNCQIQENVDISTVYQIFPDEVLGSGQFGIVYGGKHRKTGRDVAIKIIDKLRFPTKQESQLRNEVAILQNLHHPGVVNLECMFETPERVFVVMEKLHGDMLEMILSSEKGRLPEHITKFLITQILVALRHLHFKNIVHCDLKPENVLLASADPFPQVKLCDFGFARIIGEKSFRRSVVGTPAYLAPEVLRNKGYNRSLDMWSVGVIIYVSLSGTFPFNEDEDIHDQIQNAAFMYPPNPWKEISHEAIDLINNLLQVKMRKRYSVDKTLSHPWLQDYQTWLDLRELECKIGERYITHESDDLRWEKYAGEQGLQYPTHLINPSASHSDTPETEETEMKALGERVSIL
# Insulin prom inh = TRM-6 insulin promoter activity inhibition; hit rate 0.9% among 130,000; TRM-6 cells (human fetal islet line), insulin promoter-eGFP reporter, imaging; reporter expression induced with tamoxifen; inhibition, % at 2 µM; AID 1273;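 active = inhibition above the mean plus 3 SD, with well images judged a real hit on visual review, cut at about 60% in these data, passing the limit was not always enough; inconclusive = inhibition over the cutoff but images rejected on review; inactive = inhibition not above the cutoff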
# Insulin prom inh cell count = also measured in Insulin prom inh; calls as there; normalized cell count, %; measured here: cell count, toxicity; reference of the scale not given here;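 cells exposed to compound for 48 h; stained nuclei by imaging scaled within each plate; lower means fewer cells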
# HSV replic up primary fold = further read-out of HSV replic up, marked with its call; fold increase; compound at 10 µM; measured here: primary screen fold increase 10 uM; tested in PC3 cells;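 GFP signal in the first replicate; 1 = infected wells without compound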
# An asterisk follows results filed as active; i = inactive; ? = inconclusive; . = not tested or not shown.
# Values run as follows: HSV replic up primary fold, PKD1 inh, RGS16-Gao, Insulin prom inh cell count, Insulin prom inh, HSV replic up, GALR2 agonist
CCOc1ccc2nc(NC(=O)CN3CCC(n4nnc5cc(F)ccc54)CC3)sc2c1
 : 0.71, -8.0, 95.8, 132.4, 0.0, i, -1.9
CCn1c(O)c(/C=C2\C=Nc3ccccc32)sc1=Nc1ccc(C)cc1
 : 0.98, -0.2, 103.2, ., ., i, -2.3
O=C(CCn1cnc2ccccc2c1=O)Nc1ccc(S(=O)(=O)N2CCCC2)cc1
 : 0.82, 0.6, 118.9, 73.7, 14.3, i, 0.0
O=C(Nc1ccc2nccnc2c1)c1ccco1
 : 1.05, 2.2, 102.0, ., ., i, .
CN(CCC1CCCCO1)C(=O)CCc1nnc(CCCCc2ccccc2)o1 (centres undefined)
 : 0.9, -6.2, 104.8, 146.9, -65.2, i, .
CCc1ccc(Nc2nnc(SCC(=O)NC(=O)c3cccn3C)s2)cc1
 : 0.81, -1.1, 101.4, ., ., i, .
CC1CCCN1CC#CC(O)(c1ccccc1)c1ccccc1 (centres undefined)
 : 1.03, ., 100.1, ., ., i, .
CCSc1oc(-c2cccs2)nc1S(=O)(=O)c1ccccc1
 : 0.9, 2.7, 95.3, ., ., i, -2.2
O=c1c2ccccc2nc(SCc2nnc(-c3ccccc3Br)o2)n1Cc1ccco1
 : 0.96, 14.1, 98.5, 106.8, 32.3, i, -1.6
CCOC(=O)c1cccc(P(=O)(C(C)(C)C)C(C)(C)C)c1
 : 1.04, -9.2, 103.8, ., ., i, -0.8
CCN=c1scc(-c2ccco2)n1/N=C/c1ccc(OC)c(O)c1
 : 0.81, 2.6, 106.6, 83.5, 3.6, i, -1.6
Cc1ccc(-c2nc3ccccn3c2Nc2ccccc2)o1
 : 1.03, -1.4, 100.2, 114.9, -5.6, i, -0.8
O=C(NCCN1CCOCC1)c1ccc2c(c1)N(Cc1ccccc1)C(=O)CS2
 : 1.18, -4.4, 103.6, 72.7, -148.0, i, -0.6
Cc1ccc(N(Cc2cc3ccccc3[nH]c2=O)C(=O)c2cccs2)cc1C
 : 1.05, ., 102.2, ., ., i, .
CCn1c(SCC(=O)NCc2ccccc2)nnc1-c1c[nH]c2ccccc12
 : 0.95, -1.6, 79.7, 132.4, -15.5, i, -0.4
CCN(CC)S(=O)(=O)c1cc(-c2nnc(-c3ccc(Br)cc3)o2)ccc1Cl
 : 1, -18.8, 96.8, 97.5, -33.3, i, -2.5
COc1ccc(OCCCC(=O)Nc2ncn[nH]2)cc1
 : 0.93, 7.8, 100.9, ., ., i, .
COC/C=C/C1=CC2=CC(=O)C(C)(OC(=O)C3CCCC3)C(=O)C2=CO1 (centres undefined)
 : 0.88, ., 96.2, ., ., i, .
COc1cccc2c1OCC([C@@H]1C[C@H]3CN(Cc4cccc(Cl)c4)C(=O)[C@]34CCCN14)=C2
 : 0.98, -1.3, 106.5, ., ., i, .
Cc1cccc(NC(=O)CSc2nnc(-c3ccc(S(=O)(=O)N4CCCC4)cc3)o2)c1
 : 0.96, -0.2, 98.5, 159.9, 0.0, i, 0.4
O=C(Nc1ccccc1)c1cccc(C(F)(F)F)c1
 : 1.03, -7.3, 90.3, 99.3, -13.3, i, 0.2
O=c1[nH]cnc2nc3n(c12)CCCCC3
 : 1, 5.2, 101.0, 224.8, 64.3, i, -2.2
CC(=O)c1c(C)[nH]c(C(=O)COc2ccc(C#N)cc2)c1C
 : 0.85, -10.5, 98.2, 170.6, -30.6, i, -0.9
COc1ccc(CCn2ccc(O)c(Cc3c(F)cccc3Cl)c2=O)cc1OC
 : 0.92, 3.1, 93.8, 126.7, 0.0, i, .
CS(=O)(=O)N(CC(=O)NCCSc1ccccn1)c1cccc2ccccc12
 : 1.07, -6.5, 146.8, 75.3, 3.5, i, -2.4
CCCN1C2=NCCN2c2ccccc21
 : 1.04, -2.6, 90.9, 139.2, 31.2, i, -1.4
CCCn1c(-c2ccc(OC)cc2)nc2ccccc21
 : 0.86, -17.4, 86.9, ., ., i, 0.1
CCOC(=O)CSc1nnc(-c2ccccc2)c(=O)[nH]1
 : 0.91, -0.2, 102.3, 91.4, 30.0, i, 0.9
CCOC(=O)c1cnc2c(-c3ccccc3)cnn2c1N
 : 1.1, 6.2, 111.9, 114.9, -54.5, i, -1.2
Cc1ccc(C(=O)Nc2ccc(OCc3ccccc3)cc2)cc1[N+](=O)[O-]
 : 0.92, -2.3, 94.7, 59.1, 6.5, i, -0.1
COc1ccc(N2C(=O)NC(NC(=O)c3ccncc3)(C(F)(F)F)C2=O)cc1 (centres undefined)
 : 0.88, -4.2, 93.5, 68.8, 30.0, i, -1.2
COc1cccc(C(c2nnnn2CC2CCCO2)N2CCN(C(=O)c3ccco3)CC2)c1OC (centres undefined)
 : 1.01, -7.2, 99.7, 116.6, 10.0, i, .
Cn1nnnc1SCC(=O)Nc1ccc(Oc2ccc(Cl)cc2)cc1
 : ., 1.6, 106.2, 98.8, 24.1, ., -1.2
CCOC(=O)c1ccccc1NC(=O)CSc1nc2c(c(=O)n(C)c(=O)n2C)n1C
 : 1, -3.5, 100.6, 109.2, -16.2, i, -0.9
CCOC(=O)c1cnc2ccccc2c1Nc1ccc2c(c1)OCCO2
 : 1.01, -2.1, 98.7, ., ., i, -1.0
O=[N+]([O-])c1ccccc1N/N=C1\CC2CC=CC12 (centres undefined)
 : 1.02, 5.9, 99.7, ., ., i, .
COc1ccc(C(=O)Nc2cc(OC)ccc2OC)cc1
 : 0.95, -2.0, 107.4, 110.3, -24.2, i, -1.4
Cn1c(=O)c2c(nc(SCCCC#N)n2Cc2c(F)cccc2Cl)n(C)c1=O
 : 0.91, -5.0, 98.4, ., ., i, -1.5
CSc1ccccc1NC(=O)CN1CCN(Cc2ccccc2)CC1
 : 0.99, -10.1, 102.4, ., ., i, .
Cc1ccc(C(=O)CN2/C(=C(\O)c3ccccc3)C(=O)c3ccccc3S2(=O)=O)c(C)c1
 : 1.01, 1.3, 99.8, 82.5, 9.3, i, -0.4
Cc1ccnc(NC(=O)C23CC4CC(CC(C4)C2)C3)c1
 : 1.11, -4.0, 100.3, 144.0, -29.0, i, -0.8
OCCN(Cc1ccccc1)Cc1ccc(C(F)(F)F)cc1
 : 0.93, -8.1, 101.7, 105.4, -21.7, i, -2.4
NNC(=S)NCc1ccccc1
 : 1.21, ., 98.9, ., ., i, .
CC1(C)CN(c2ccccc2)N(C(=O)c2ccc(F)cc2)C1=O
 : 1.54, -21.9, 105.7, 103.4, -37.5, i, -0.5
CCc1ccc(C2NC(=S)NC3=C2C(=O)N(c2ccccc2OC)C(c2ccc(CC)cc2)N3)cc1 (centres undefined)
 : 0.87, -1.7, 102.7, ., ., i, 0.8
O=C(CN1C(=O)c2ccc([N+](=O)[O-])cc2C1=O)Nc1nccs1
 : 1.08, 0.8, 100.1, ., ., i, .
COC(=O)c1cccc(NC(N)=S)c1
 : 1.04, 10.9, 100.2, ., ., i, .
COc1ccc(S(=O)(=O)CCC(=O)N2CCN(c3ccc(F)cc3)CC2)cc1
 : 0.95, -3.1, 103.9, ., ., i, .
CC(=O)c1cccc2c(O)c(C3=Nc4ccccc4C3=O)[nH]c12
 : ., 2.3, 94.0, 59.9, -206.2, ?, -0.9
O=C(O)C1CCCCC1C(=O)Nc1cnn(Cc2ccccc2)c1 (centres undefined)
 : 0.993, 13.0, 106.5, ., ., i, -0.7
CCCN(CCC)c1c([N+](=O)[O-])c(=O)oc2ccccc12
 : 1.14, 7.3, 63.2, 71.3, 14.7, i, -1.4
CN(Cc1nc(-c2cnccn2)no1)Cc1n[nH]c2c1CCCC2
 : 1.02, -6.1, 45.9, 89.4, 9.5, i, .
CCOC(=O)N1CCN(c2c(NCCc3ccc(C)cc3)c(=O)c2=O)CC1
 : ., -2.1, 93.2, ., ., ., .
CC(=O)N(CCS(=O)(=O)c1ccc(Cl)cc1)Cc1cccs1
 : 1.06, ., 85.0, ., ., i, .
O=C(Nc1cccc(S(=O)(=O)N2CCOCC2)c1)c1cnn2c(C(F)F)cc(-c3ccccc3)nc12
 : 0.93, -0.1, 101.2, ., ., i, .
Cc1oc2ccc(O)cc2c1C(=O)OC(C)C
 : 0.85, -4.9, 101.2, 103.0, -14.3, i, -1.3
COC(=O)c1sc(NC(=O)CSc2nnc(Cn3nnc4ccccc43)n2C)nc1C
 : 1.03, 0.4, 100.1, ., ., i, -0.4
COc1ccccc1CC(=O)Nc1ccc(-c2noc(COc3cccc(C)c3C)n2)cc1
 : 0.97, -20.8, 104.3, ., ., i, -3.9
O=C(NCc1cn2ccsc2n1)Nc1cccc(Cl)c1
 : 0.93, 0.0, 103.2, 77.2, -75.4, i, -1.0
N#CC1=C(Nc2ccccc2)SC=C(c2ccc(F)cc2)N=C1N1CCOCC1
 : ., 2.8, 105.1, 139.8, -24.3, ., -0.7

# (more compounds)
# Values run as follows: HSV replic up primary fold, PKD1 inh, RGS16-Gao, Insulin prom inh cell count, Insulin prom inh, HSV replic up, GALR2 agonist
CC(C)(Cl)C1Cc2cc3ccc(=O)oc3cc2O1 (centres undefined)
 : 1.05, 7.1, 100.2, 117.0, -33.3, i, -1.0
COc1ccc(C(NC(=O)c2cccc(F)c2)c2ccccc2)cc1 (centres undefined)
 : 0.88, 10.2, 100.3, ., ., i, -1.4
CCn1c(Cc2cccs2)nnc1SCC(=O)NC(C)(C)C
 : 0.97, -2.2, 97.8, ., ., i, .
O=C(COC(=O)C1(c2ccccc2)CC1)N1CCN(c2ccc(F)cc2)CC1
 : 0.82, -1.7, 107.4, 105.6, 0.0, i, -0.3
O=C(NCc1ccncc1)c1ccc(Oc2ccccc2)cc1
 : 1.07, -10.0, 110.6, 123.3, 27.8, i, .
CCOC(=O)c1ccc(-n2nc(C)cc2C)cc1
 : 0.85, ., 103.5, ., ., i, .
COc1cc(/C=C(/C#N)C(=O)Nc2ccccc2)ccc1OCc1ccc(C(=O)O)cc1
 : 0.99, 5.8, 105.0, ., ., i, .
CCN(CC)CCNC(=O)c1ccc(NC(=O)c2ccc(Cl)c(S(=O)(=O)Nc3ccccc3OC)c2)cc1
 : 0.93, 2.7, 100.5, 148.0, 7.1, i, -2.3
C#Cc1cccc(NC(=O)C2CCN(C(C)=O)CC2)c1
 : 1, 8.3, 92.8, ., ., i, .
COc1cccc(C(=O)NC(=S)Nc2ccc([N+](=O)[O-])cc2C)c1
 : 1.01, -3.0, 102.4, 101.7, -3.5, i, -0.9
O=C(NCc1cccs1)C1CCN(c2nc3ccccc3o2)CC1
 : ., 3.9, 89.0, ., ., ., -2.4
CC(OC(=O)Cc1coc2ccc3ccccc3c12)C(=O)Nc1ncc(Cl)cc1Cl (centres undefined)
 : 1.07, -1.2, 45.2, 115.7, -38.7, i, -0.9

# Among those listed so far, these contain fluorine:
# Values run as follows: HSV replic up primary fold, PKD1 inh, RGS16-Gao, Insulin prom inh cell count, Insulin prom inh, HSV replic up, GALR2 agonist
CCOc1ccc2nc(NC(=O)CN3CCC(n4nnc5cc(F)ccc54)CC3)sc2c1
 : 0.71, -8.0, 95.8, 132.4, 0.0, i, -1.9
O=C(Nc1ccccc1)c1cccc(C(F)(F)F)c1
 : 1.03, -7.3, 90.3, 99.3, -13.3, i, 0.2
COc1ccc(CCn2ccc(O)c(Cc3c(F)cccc3Cl)c2=O)cc1OC
 : 0.92, 3.1, 93.8, 126.7, 0.0, i, .
COc1ccc(N2C(=O)NC(NC(=O)c3ccncc3)(C(F)(F)F)C2=O)cc1 (centres undefined)
 : 0.88, -4.2, 93.5, 68.8, 30.0, i, -1.2
Cn1c(=O)c2c(nc(SCCCC#N)n2Cc2c(F)cccc2Cl)n(C)c1=O
 : 0.91, -5.0, 98.4, ., ., i, -1.5
OCCN(Cc1ccccc1)Cc1ccc(C(F)(F)F)cc1
 : 0.93, -8.1, 101.7, 105.4, -21.7, i, -2.4
CC1(C)CN(c2ccccc2)N(C(=O)c2ccc(F)cc2)C1=O
 : 1.54, -21.9, 105.7, 103.4, -37.5, i, -0.5
COc1ccc(S(=O)(=O)CCC(=O)N2CCN(c3ccc(F)cc3)CC2)cc1
 : 0.95, -3.1, 103.9, ., ., i, .
O=C(Nc1cccc(S(=O)(=O)N2CCOCC2)c1)c1cnn2c(C(F)F)cc(-c3ccccc3)nc12
 : 0.93, -0.1, 101.2, ., ., i, .
N#CC1=C(Nc2ccccc2)SC=C(c2ccc(F)cc2)N=C1N1CCOCC1
 : ., 2.8, 105.1, 139.8, -24.3, ., -0.7
COc1ccc(C(NC(=O)c2cccc(F)c2)c2ccccc2)cc1 (centres undefined)
 : 0.88, 10.2, 100.3, ., ., i, -1.4
O=C(COC(=O)C1(c2ccccc2)CC1)N1CCN(c2ccc(F)cc2)CC1
 : 0.82, -1.7, 107.4, 105.6, 0.0, i, -0.3
